Source: PubChem BioAssay (several laboratories)
RanGTP-Impb inh: inhibitors of RanGTP-importin-beta interaction, primary screen, biochemical, FRET, CFP-Ran, YFP-importin-beta, homogeneous. cell-free CFP-Ran/YFP-importin-beta FRET ratio. inhibition, % (concentration not given with the values). hit rate 1.1% among 300,000;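 active means most replicates above 15%; inconclusive means exactly half above 15%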;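 further: 0% = DMSO wells and 100% = Ran loaded with GDP instead of GTP; wells of about 40 µL received 100 nL stock; the first replicate is given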
MLL AF4-AF9 inh: inhibitors of AF4 peptide binding to AF9, primary screen, biochemical, AlphaScreen, biotin-AF4 peptide, FLAG-AF9, single point; Protein AF-9 (Homo sapiens), P42568; inhibition, % at 10 µM; hit rate 0.47% among 350,000; AID 651704, 2012;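 active means every replicate reaching a set inhibition limit, whatever the replicate mean, cut at about 25% in these data; inconclusive means mean inhibition reaches that limit but some replicates miss it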;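 further: 0% = plate neutral control median and 100% = total signal loss; the record names both 10 and 1 µM as test concentration; the first replicate is given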
Target sequence (P42568 whole entry, looked up): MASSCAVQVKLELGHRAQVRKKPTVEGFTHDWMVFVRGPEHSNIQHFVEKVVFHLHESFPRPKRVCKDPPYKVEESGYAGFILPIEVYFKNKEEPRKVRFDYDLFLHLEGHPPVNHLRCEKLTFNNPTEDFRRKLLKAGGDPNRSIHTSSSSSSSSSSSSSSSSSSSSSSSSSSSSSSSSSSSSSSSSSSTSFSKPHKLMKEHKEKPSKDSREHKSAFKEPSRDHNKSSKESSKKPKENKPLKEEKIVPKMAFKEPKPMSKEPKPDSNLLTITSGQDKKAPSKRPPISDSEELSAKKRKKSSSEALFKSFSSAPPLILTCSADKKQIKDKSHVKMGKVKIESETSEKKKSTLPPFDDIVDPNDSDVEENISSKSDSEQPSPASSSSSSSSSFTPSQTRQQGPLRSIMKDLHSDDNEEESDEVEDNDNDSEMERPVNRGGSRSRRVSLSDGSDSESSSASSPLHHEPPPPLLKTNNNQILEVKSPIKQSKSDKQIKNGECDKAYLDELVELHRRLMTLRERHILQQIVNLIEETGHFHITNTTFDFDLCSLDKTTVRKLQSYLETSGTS
UCH37 DUB inh: inhibitors of human UCH37 deubiquitinase, primary screen, biochemical, Ub-AMC cleavage, fluorescence; Ubiquitin carboxyl-terminal hydrolase isozyme L5 (Homo sapiens), Q9Y5K5; purified proteasome/UCH37; inhibition, % (test concentration not listed); hit rate 0.33% among 330,000;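 active means mean of two replicates above 20%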;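 further: 0% = compound-free wells with enzyme and 100% = wells lacking proteasome; stock transfer was 100 nL into about 20 µL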
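Schedule: 30 min plus 25 min, room temperature / Material: human UCH37 within purified proteasomes / Technique: AMC fluorescence intensity at 355/460 nm / Buffer or medium: pH 7.4 Tris-HCl (50 mM) with ovalbumin, ATP-MgCl2, DTT / Controls: wells without proteasome as full block, compound-free enzyme plus substrate as uninhibited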
Vif A3G: inhibitors of Vif binding to APOBEC3G peptide, primary screen, biochemical, TR-FRET, GST-Vif 1-94, biotin-A3G peptide, dose response retest (AID 1117319); Virion infectivity factor (Human immunodeficiency virus type 1 group M subtype B (isolate …; TR-FRET GST-Vif / biotin-A3G peptide binding; higher % means a stronger effect; test concentration not given here; strong numbers were not always called active; inhibition, %; hits with a dose series show IC50 in µM; hit rate 0.57% among 260,000;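 active means above the screen mean plus three standard deviations and confirmed in dose response; inconclusive means results disagree or hit not tested in dose response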;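 further: Vif residues 1-94 fused to GST binding biotinylated APOBEC3G peptide 110-148; 0% = full assay without inhibitor and 100% = GST in place of GST-Vif; retest series ran down from 100 µM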
E coli growth: E. coli growth inhibition, primary screen, OD600. hit rate 0.21% among 330,000. AID 1053175, 2014. OD600 absorbance (concentration not given with the values). Escherichia coli growth, 23 h; active compounds read low;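 active means OD600 absorbance below the run mean of sample wells minus 3.6 SD, in any replicate, cut at about 0.56 in these data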;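 further: stock transfer was 300 nL into about 60 µL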
HNF4A DNA FP: change in binding of human HNF4A to DNA, primary screen, biochemical, fluorescence polarization, FITC-DNA; hit rate 0.3% among 360,000; activity change, % at 10 µM; Hepatocyte nuclear factor 4-alpha (Homo sapiens), P41235; 1 h; in the data active means activity change above about 30%, passing the limit was not always enough;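 further: controls were the assay level and a saturating level of protein; the project sought stronger binding though the title names inhibitors; some compounds called inactive have numbers as strong as hits; positive values seem to mean higher polarization but the record does not say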
Target sequence (P41235 whole entry, looked up): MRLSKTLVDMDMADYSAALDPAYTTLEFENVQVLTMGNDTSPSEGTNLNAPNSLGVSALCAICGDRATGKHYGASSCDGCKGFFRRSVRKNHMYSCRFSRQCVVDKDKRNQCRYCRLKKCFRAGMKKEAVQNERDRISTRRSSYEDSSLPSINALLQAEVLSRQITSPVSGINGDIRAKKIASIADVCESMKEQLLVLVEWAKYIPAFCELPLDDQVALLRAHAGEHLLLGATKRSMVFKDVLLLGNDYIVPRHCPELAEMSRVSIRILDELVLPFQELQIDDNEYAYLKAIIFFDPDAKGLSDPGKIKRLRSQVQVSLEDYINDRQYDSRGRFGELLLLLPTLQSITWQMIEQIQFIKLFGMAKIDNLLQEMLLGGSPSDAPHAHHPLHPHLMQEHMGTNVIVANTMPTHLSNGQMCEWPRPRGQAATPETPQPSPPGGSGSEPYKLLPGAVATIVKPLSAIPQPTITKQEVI
FGF22 binding: binders of human FGF22 protein, primary screen, FGF22 synaptogenesis inhibitor project, biophysical, thermal shift, single point; recombinant FGF22 thermal shift, SYPRO orange fluorescence; percent of sucrose octasulfate shift, DMSO zero; AID 651658, 2012; calls only at 9.99 µM; Fibroblast growth factor 22 (Homo sapiens), Q9HCT0; hit rate 1.5% among 340,000;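 active means melting point raised past a set limit in the mean and every replicate; inconclusive means no clear call; three in four hits are not shown here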
* = called active by the depositor; i = inactive; ? = inconclusive; . = not tested or not shown. Not all compounds are listed, so the mix of outcomes need not match the whole.

SMILES | RanGTP-Impb inh | MLL AF4-AF9 inh | UCH37 DUB inh | Vif A3G | E coli growth | HNF4A DNA FP | FGF22 binding
O=C(Nc1cccnc1)c1ccc(-c2ccccc2)cc1 | -2.4 | -2.8 | 0.0 | -8% | 0.66 | 4.9 | i
CC(=O)N1N=C(c2ccc(C)cc2)OC1c1cccnc1 (stereo not drawn) | 1.0 | -1.7 | 2.3 | -2% | 0.69 | 1.4 | .
CN1C(=O)N(C)C2C1N(CN1CCCCC1)C(=O)N2CN1CCCCC1 (stereo not drawn) | 3.2 | . | 4.6 | ? | 0.75 | -0.3 | .
CCn1c(SCc2nc3cc(OC)c(OC)cc3c(=O)[nH]2)nnc1-c1ccncc1 | -4.5 | . | 2.0 | -5% | 0.68 | 3.1 | .
CC(=O)C1=C(O)C(=O)N(CCO)C1c1ccccc1 (stereo not drawn) | -0.3 | 5.2 | 6.5 | 8% | 0.69 | -5.2 | i
Cn1c(SCc2ccc(Br)cc2)nc2ccccc2c1=O | 0.5 | 3.9 | 1.2 | 2% | 0.64 | -0.6 | i
CCCCNC(=O)C1(C)CCCCN1Cc1ccc(-c2ccccc2)cc1 (stereo not drawn) | . | -1.3 | . | . | . | 3.2 | i
COc1ccc(C(CNS(=O)(=O)c2ccc(C)cc2)N2CCN(C)CC2)cc1 (stereo not drawn) | 0.3 | -0.2 | 4.6 | -2% | 0.69 | 3.2 | i
O=C(CN1CCCCC1)Nc1cccc(-n2cnnn2)c1 | ? | . | 0.7 | 3% | 0.69 | -3.2 | .
CCN1C(=O)c2ccccc2Sc2ccc(C(=O)NCCCN3CCOCC3)cc21 | -3.8 | -4.5 | 0.5 | -9% | 0.72 | -3.3 | .
O=C(Nc1cccnc1)c1cc(-c2cc(Cl)ccc2O)n[nH]1 | 0.2 | 0.9 | 3.0 | -3% | 0.71 | 1.1 | i
Cc1c(C(=O)NC2CC(C)(C)NC(C)(C)C2)oc2c(Cl)cccc12 | . | 2.0 | . | -3% | . | -3.1 | i
COCc1ccc([C@@H]2C[C@H]3CN(Cc4ccccc4C)C(=O)[C@]34CCCN24)o1 | 3.5 | -7.1 | -1.2 | -4% | 0.65 | 1.8 | i
O=C(CN1CCOCC1)Nc1ccc(Br)cn1 | 7.2 | . | 1.1 | 8% | 0.65 | 0.7 | .
O=C(CCN1C(=O)c2cccnc2C1=O)NC1CCCCCC1 | -2.1 | . | -3.5 | 1% | 0.73 | 4.0 | .
O=C(COC(=O)Cc1c(F)cccc1Cl)NCc1ccc2c(c1)OCO2 | . | -4.0 | 1.8 | -3% | 0.63 | -1.2 | i
Cc1ccc(C(O)c2cccnc2)o1 (stereo not drawn) | -2.1 | 4.2 | 1.1 | 5% | 0.7 | 2.6 | i
Cc1ccc2nc(NC(=O)C3CCN(c4ncnc5sc(C)c(C)c45)CC3)sc2c1 | 5.8 | . | -2.2 | . | 0.67 | 7.8 | .
COc1ccc2c(c1OC)C(=O)N1C2SC(C)(C)[C@H]1C(=O)NC1CC1 (stereo partly drawn) | -2.5 | -0.6 | -5.6 | . | 0.79 | 4.0 | i
CC(C)CC1(C)NC(=O)NC1=O (stereo not drawn) | 6.7 | . | 5.6 | -3% | 0.75 | 0.3 | .
O=C(CSc1nccn(-c2ccc(F)c(F)c2)c1=O)NC1CCCC1 | -5.0 | -1.9 | -14 | -3% | 0.66 | 4.5 | i
CCCSc1ccc([C@@H]2[C@@H]3C(=O)N(CC)C(=O)[C@@H]3[C@]3(C(=O)OC)CCCCN23)cc1 | . | 0.4 | -1.2 | . | . | 3.3 | i
COc1ccc(Nc2nc(C)nc3c2nnn3Cc2ccccc2)cc1OC | 7.6 | . | -2.9 | 2% | 0.76 | -2.4 | .
COc1cccc(CN2CCC2(C)C(=O)Nc2ccc(C)cc2)c1F (stereo not drawn) | . | -2.6 | . | . | . | 1.8 | i
CC1(C)Cc2ccccc2-c2nc(NCCO)n(-c3ccccc3)c(=O)c21 | 0.2 | . | -497 | -2% | 0.7 | 4.8 | .

Three entries from above, reformatted:
O=C(CSc1nccn(-c2ccc(F)c(F)c2)c1=O)NC1CCCC1
  RanGTP-Impb inh = -5.0; MLL AF4-AF9 inh = -1.9; UCH37 DUB inh = -14; Vif A3G = -3%; E coli growth = 0.66; HNF4A DNA FP = 4.5; FGF22 binding = i

CCn1c(SCc2nc3cc(OC)c(OC)cc3c(=O)[nH]2)nnc1-c1ccncc1
  RanGTP-Impb inh = -4.5; MLL AF4-AF9 inh = .; UCH37 DUB inh = 2.0; Vif A3G = -5%; E coli growth = 0.68; HNF4A DNA FP = 3.1; FGF22 binding = .

CCN1C(=O)c2ccccc2Sc2ccc(C(=O)NCCCN3CCOCC3)cc21
  RanGTP-Impb inh = -3.8; MLL AF4-AF9 inh = -4.5; UCH37 DUB inh = 0.5; Vif A3G = -9%; E coli growth = 0.72; HNF4A DNA FP = -3.3; FGF22 binding = .

(list continues)
SMILES | RanGTP-Impb inh | MLL AF4-AF9 inh | UCH37 DUB inh | Vif A3G | E coli growth | HNF4A DNA FP | FGF22 binding
CC1(C)Cc2cccc(OCC(O)CN3CCN(c4ccccn4)CC3)c2O1 (stereo not drawn) | 2.1 | . | 2.6 | 69% | 0.73 | 0.2 | .
COc1ccccc1CNC(=O)c1sccc1C | 1.8 | -4.0 | 0.6 | -2% | 0.68 | 1.4 | i
COc1ccc(N(CC(=O)N2CCN(c3cccc(Cl)c3)CC2)S(=O)(=O)c2c(C)noc2C)cc1 | 4.3 | 1.4 | 5.2 | 0% | 0.71 | -0.7 | i
CC12CNCC(C)(CN(C(c3ccccc3)c3ccccc3)C1)C2 | -3.6 | . | 3.5 | -14% | 0.72 | 3.3 | .
Oc1ccc[n+](CCCCC[n+]2cccc(O)c2)c1 | -2.8 | -21 | 1.7 | -2% | 0.65 | -4.7 | i
CCCCNS(=O)(=O)/C=C/c1ccccc1 | -2.1 | . | -1.3 | . | 0.68 | 0.8 | .
Cc1ccc(C(=O)CCC(=O)NC2CCCC(C)C2C)cc1 (stereo not drawn) | 2.8 | -5.7 | 0.0 | -6% | 0.74 | 2.2 | i
N#Cc1ccsc1NC(=O)CN1CCN(c2ccc(O)cc2)CC1 | 3.6 | . | -2.9 | ? | 0.73 | 5.4 | .
CN1CC(=O)N(CCOc2ccccc2)C1=O | ? | . | 5.6 | 18% | 0.7 | -0.9 | .
CCCCOc1ccc(C(=O)NCC(=O)N2CC(C)OC(C)C2)cc1 (stereo not drawn) | . | 1.1 | 5.4 | 2% | 0.7 | 1.8 | i
CC(C(=O)Nc1ccccc1C(=O)N1CCOCC1)N(c1ccccc1)S(C)(=O)=O (stereo not drawn) | -2.1 | . | 3.0 | 7% | 0.73 | -0.9 | .
CCc1cc(-c2[nH]ncc2-c2ccc(OC)cc2)c(O)cc1O | -5.1 | 11 | 1.7 | . | 0.68 | -1.7 | i
Cc1ccccc1N1CC(C(=O)N2CCc3ccccc32)CC1=O (stereo not drawn) | -2.1 | -0.2 | 1.7 | 1% | 0.67 | -3.1 | i
CC1=NOC(=O)/C1=C/c1ccc(-c2ccc(Cl)cc2)o1 | . | . | 6.9 | 27% | 0.59 | -1.6 | .
CC(C)NC(=O)CSc1nc(N)c(NC(=O)c2ccco2)c(=O)[nH]1 | 5.3 | -0.5 | 0.4 | 6% | 0.7 | 3.3 | i
O=C(COc1ccc2c3c(c(=O)oc2c1)CCC3)N1CCN(c2ccccc2)CC1 | 0.9 | -18 | -3.9 | . | 0.66 | -2.8 | i
CCC1(C)Cc2ccccc2-c2c1c(=O)n(-c1ccc(C)cc1)c1nnnn21 (stereo not drawn) | ? | . | 2.8 | 28% | 0.73 | 7.1 | .
CCN(CC)C(=O)c1c(Cl)nc(C)c([N+](=O)[O-])c1C | 1.8 | . | 0.8 | . | 0.66 | 0.7 | .
COc1ccc(C(CCNCc2ccc(N(C)C)cc2)c2ccccc2OC)cc1 (stereo not drawn) | ? | 51* | 4.6 | 0% | 0.63 | 5.6 | i
CCN(CC)S(=O)(=O)c1ccc(N2CCCC2)c(NS(=O)(=O)c2ccccc2)c1 | -1.6 | . | 3.0 | 14% | 0.69 | -1.1 | .
COc1ccc(-c2nc(N)n[nH]2)cc1OC | 2.0 | . | -1.8 | 2% | 0.77 | -1.3 | .
Cc1cccc(N2CC(C(=O)NCCC3=CCCCC3)CC2=O)c1C (stereo not drawn) | 7.0 | -14 | 23* | 4% | 0.68 | 3.7 | .
O=C(CCN1CCCCCC1)Nc1ccc(F)cc1 | 6.2 | . | 6.3 | 11% | 0.67 | 0.0 | .
CCOc1ccc(CC(=O)N2CCC3(CC2)NCCc2[nH]cnc23)cc1 | 1.5 | 4.8 | 0.7 | . | 0.68 | 5.3 | i
C=CCN(CC=C)C(=S)Nc1ccc2nsnc2c1 | -18 | 1.3 | 4.9 | 5% | 0.71 | 0.1 | i
SMILES | RanGTP-Impb inh | MLL AF4-AF9 inh | UCH37 DUB inh | Vif A3G | E coli growth | HNF4A DNA FP | FGF22 binding
CCOC(=O)N1CCC(NCc2c(C(=O)N(C)Cc3ccccc3)nc3ccccn23)CC1 | 3.5 | -2.3 | 0.1 | -1% | 0.72 | -1.7 | i
COCCN(C(=O)c1ccc(-c2ccc(Cl)cc2)o1)c1c(N)n(CC(C)C)c(=O)[nH]c1=O | . | 3.1 | -4.5 | -1% | 0.63 | 1.4 | i
CCC(=O)Nc1nnc(-c2ccc(OC)cc2)o1 | 1.2 | -2.9 | 4.8 | -3% | 0.65 | -1.6 | i
CC(=O)c1ccc(N(C(=O)Cn2nnc(-c3ccccc3)n2)C(C(=O)NC2CCCCC2)c2ccccn2)cc1 (stereo not drawn) | ? | . | 2.8 | -9% | 0.67 | -1.2 | .
CCN(CC(=O)Nc1ccc(NC(C)=O)cc1)C(=O)c1c(-c2c(F)cccc2Cl)noc1C | 1.7 | 0.1 | 4.5 | . | 0.76 | 0.9 | i
Clc1ccc(OCc2noc(-c3ccsc3)n2)c(Cl)c1 | 1.0 | 2.6 | 3.3 | 4% | 0.69 | -1.5 | i
Cc1nnc(NC(=O)c2cc(S(=O)(=O)N3CCCCC3)ccc2Cl)s1 | -0.6 | 0.3 | 2.6 | 4% | 0.74 | 4.8 | i
CC(CCc1ccccc1)NC(=O)COC(=O)c1cc(NS(=O)(=O)c2ccc(Cl)c([N+](=O)[O-])c2)ccc1O (stereo not drawn) | 1.9 | . | 1.1 | -8% | 0.7 | -5.2 | .
Cc1ccc(S(=O)(=O)N2CCC(NC(=O)c3cccc(F)c3)CC2)cc1 | 3.4 | 0.8 | 2.9 | . | 0.65 | -3.0 | i
Cn1c(=O)c2[nH]c(NN=Cc3ccc(F)cc3)nc2n(C)c1=O | . | 2.6 | 0.7 | -1% | 0.69 | 2.8 | i
COC(=O)c1ccc(Oc2cc(C)nc(SC)n2)cc1 | 1.5 | . | 0.9 | 0% | 0.73 | 1.8 | .
O=c1c(C(c2ccc(F)cc2)c2c(O)nc3n(c2=O)CCS3)c(O)nc2n1CCS2 | -2.8 | -2.4 | 6.6 | ? | 0.68 | -0.8 | i
OCCCCNCc1ccc(OCc2ccc(Cl)cc2Cl)cc1 | -4.3 | -7.0 | 3.7 | -3% | 0.66 | 3.8 | i
O=C(Nc1sc2c(c1C(=O)O)CCCC2)c1ccc(F)cc1 | -0.9 | 1.2 | 7.1 | -2% | 0.68 | 2.9 | i
COCCn1c(SCC(=O)N2CCCCCC2)nc2c(c1=O)SCC2 | 4.1 | -1.5 | 6.5 | . | 0.64 | -3.3 | i
